# Bioassay records from PubChem.
# PABP FP inh: PABP poly(A) RNA binding inhibitors, primary screen, biochemical, fluorescence polarization, uHTS. 290,000 tested, 1% active. inhibition, % at 35 µM. AID 2014, 2009. Polyadenylate-binding protein 1 (Homo sapiens), P11940;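 active means 50% or more with normal probe brightness, or confirmed in later tests; inconclusive means above 50% with abnormal brightness, or retests that disagree; inactive means below 50% or failed in later tests; about a fifth of its hits are not listed in these tables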;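 further: calls also rest on retests at 20 µM and on dose response follow-up; controls were probe without protein and protein plus probe with vehicle; some compounds called inactive have numbers as strong as hits; many hits fall short of the cut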
# CSC inhib: cancer stem cell viability inhibitors, primary screen, luminescence. cancer stem cell-like cells viability. inhibition, % at 7.5 µM. 300,000 tested, 1.1% active;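 active means mean at 75% or more and at least half the replicates too; inconclusive means mean and replicates disagree; tested in HMLE shEcad cells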;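 further: 0% = median of negative and 100% = median of positive control wells; the first replicate is given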
# MT1-MMP act inh: blockers of MT1-MMP proenzyme processing, primary screen, HT1080 RFP-PRO-GFP cells, GFP/RFP fluorescence; Matrix metalloproteinase-14 (Homo sapiens), P50281; GFP/RFP ratio fluorescence, overnight; percent of plate control window, DMSO zero; GFP/RFP ratio change, % at 20 µM; 360,000 tested, 0.061% active; AID 651647, 2012;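 active means GFP/RFP ratio change of at least 30% with cell ATP level not reduced by more than half and red fluorescence within 50% of control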; further: strong numbers were not always called active
#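 system = RFP-PRO-GFP reporter HT1080 cells | dosing = 20 µM single dose, 1% DMSO | timing = overnight cell settling, then overnight compound exposure, 37 °C, 5% CO2 | read-out basis = GFP/RFP fluorescence ratio | controls = DMSO and RFP-L50D-GFP cell wells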
# eIF4H inh: human eIF4H binding inhibitors, primary screen, translation initiation inhibitor project, biochemical, uHTS, fluorescence polarization. 290,000 tested, 0.94% active. inhibition, % at 35 µM. eIF4H fluorescence polarization binding assay. Eukaryotic translation initiation factor 4H (Homo sapiens), Q15056;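 active means 50% or more with normal probe brightness, or confirmed in later tests; inconclusive means above 50% with abnormal brightness, or retests that disagree; inactive means below 50% or failed in later tests; about a fifth of its hits are not listed in these tables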;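 further: calls also rest on retests at 20 µM and on dose response follow-up; 0% = protein and probe with vehicle and 100% = probe without protein; strong numbers were not always called active; many hits fall short of the cut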
# UUG fidelity: modulators of yeast start codon fidelity, primary screen, whole organism, S. cerevisiae, single point, plate reader; S. cerevisiae UUG-firefly luciferase reporter, luminescence/redox ratio; activity score, % at 18.7 µM; 350,000 tested, 0.13% active; AID 602363, 2012;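 active means replicate mean at a twofold rise or more, about +100% in these data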;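 further: firefly luciferase made from a UUG start codon reports start codon fidelity; reporter light over untreated wells divided by growth signal over untreated wells; some hits fall short of that in this replicate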
# Rce1 inhib: yeast Rce1p protease inhibitors, primary screen, biochemical, fluorescence, cell-free homogeneous; CAAX prenyl protease 2 (Saccharomyces cerevisiae (strain ATCC 204508 / S288c)), Q03530; yeast membranes, quenched prenylated peptide cleavage fluorescence; calls only; 290,000 tested, 0.27% active; AID 2563, 2010;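 active means fall in fluorescence gain of 50% or more versus controls, with final raw signal at or below 3038400; inconclusive means same 50% fall but final raw signal above 3038400; inactive means fall in fluorescence gain under 50%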;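 further: plate controls were neutral control wells for no effect and wells lacking membranes for full effect; tested at 10 µM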
# Target sequence (Q03530 whole entry, looked up): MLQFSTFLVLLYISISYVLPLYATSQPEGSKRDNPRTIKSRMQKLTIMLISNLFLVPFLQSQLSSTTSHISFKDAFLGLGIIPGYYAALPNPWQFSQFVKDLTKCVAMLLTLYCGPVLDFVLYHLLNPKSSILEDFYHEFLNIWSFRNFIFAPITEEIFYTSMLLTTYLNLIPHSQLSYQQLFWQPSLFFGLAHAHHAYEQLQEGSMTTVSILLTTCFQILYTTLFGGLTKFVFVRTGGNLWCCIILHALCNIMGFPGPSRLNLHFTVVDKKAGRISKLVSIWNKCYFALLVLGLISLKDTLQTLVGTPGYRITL
# Env fusion inh: inhibitors of HIV-1 Env-driven cell-cell fusion, primary screen, HeLa-JRFL effector, CEM21 target cells, luciferase | inhibition, % at 12.3 µM | 360,000 tested, 1.1% active | AID 651610, 2012;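 active means mean replicate inhibition score of at least 50 and every replicate individually at or above 50; inconclusive means only one of the two criteria met; inactive means mean below 50 and not all replicates reaching 50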;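 further: 0% = plate neutral controls and 100% = maraviroc near 300 nM; one replicate is shown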
# MT1-MMP act inh RFP: also measured in MT1-MMP act inh; calls as there; RFP signal change, %; measured here: RFP expression control read;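 0 = vehicle wells; hits needed this value within 50% of zero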
# * marks the source's active call; other numbers are inactive results; i = inactive; ? = inconclusive; · = not tested or not shown; & = joins results of further samples.
SMILES,PABP FP inh,CSC inhib,MT1-MMP act inh,MT1-MMP act inh RFP,eIF4H inh,UUG fidelity,Rce1 inhib,Env fusion inh
O=C(O)COc1ccccc1C1C2C(=O)N(c3ccc(F)cc3)C(=O)C2ON1c1ccccc1 (centres undefined),4,-15,-1,1,8,3,i,·
Oc1ccccc1Oc1ncc(Br)c(N2CCOCC2)n1,11,-9,2,3,-9,2,i,·
CCc1nc(NCC2CCCN2CC)c2nnn(Cc3ccccc3F)c2n1 (centres undefined),0,-15,-2,3,2,5,i,·
COc1ccc2c(c1OC)C(=O)N1N=C(c3ccccc3)CC21 (centres undefined),-2,-8,1,-3,-2,-7,i,·
CNC(=S)N(Cc1ccc(OC)cc1)C1CC(=O)N(c2ccc(Cl)cc2)C1=O (centres undefined),5,15,0,-4,3,1,i,·
COc1ccc(-c2sc(Nc3ccccc3)n[n+]2-c2ccc(F)cc2)cc1Br,12,4,-2,-3,-18,-20,i,-37
CC(C)OC(=O)CC(=O)CSc1nc2c(cc1C#N)CCCC2,28,-3,12,3,26,-13,i,-112
O=C(CSCCO)Nc1cccc2ccccc12,-7,-7,-3,7,-8,25,i,-28
NCCCNc1nc(N)c([N+](=O)[O-])c(NC2CCCCC2)n1,0,15,-38,-29,0,-2,i,-441
CCN(CC)S(=O)(=O)c1cccc(C(=O)NCc2ccccc2)c1,-6,-1,1,1,0,·,i,-7
Cc1cccc(OCC(=O)NN2C(=O)C3C4C=CC(O4)C3C2=O)c1 (centres undefined),-8,0,2,2,0,·,i,6
CCc1nnc(NC(=O)CSc2nnc(-c3ccccc3OC)n2-c2ccccc2)s1,0,-7,9,4,4,-7,i,-53
Fc1ccc(NC(=S)NN2CCOCC2)cc1Cl,-3,8,2,1,-2,·,i,4
Cc1ccnc(N(C(=O)c2cccs2)C(=O)c2cccs2)c1,2,6,-4,2,0,-10,i,-44
Cc1ccccc1C(=O)NCCNC(=O)c1cnccn1,-4,-11,-2,1,0,-10,i,1
NC(=O)Cn1cc(/C=N\NS(=O)(=O)c2ccc(F)cc2)c2ccccc21,-1,-12,0,-1,-11,0,i,-2
CN(C)c1ccc(C(=O)NNC(=O)C23CC4CC(CC(C4)C2)C3)cc1,·,-9,8,0,·,2,·,-16
CCOC(=O)c1ccc(N2C(=O)CC(C)(CC)CC2=O)cc1,-5,-3,-3,1,-2,·,i,-4
O=C(c1ccco1)N1CCN(CC2CC3C=CC2C3)CC1 (centres undefined),17,·,6,6,1,-12,·,-23
O=C(O)CCSc1nnc(COc2ccc([N+](=O)[O-])cc2)n1-c1ccccc1,6,-15,-1,5,-4,·,i,-3
CCCCNC(=O)C1CC(c2ccc(C(F)(F)F)cc2)=NO1 (centres undefined),1,-9,1,2,-10,-7,i,5
COc1ccccc1NC(=O)Cn1nc(-c2ccncc2)nc1SCC(=O)NC1CCCC1,-14,38,-10,-9,0,-12,i,-31
CCOC(=O)C1CCCN(c2c(NCc3ccco3)c(=O)c2=O)C1 (centres undefined),16,-9,3,3,0,-14,i,-11
O=C(c1ccccc1)N1CCCCCC1,7,3,4,5,-3,·,i,8
Cc1ccc(N=Cc2c(C)[nH]n(-c3nc4ccccc4[nH]3)c2=O)cc1,4,95*,10,3,9,-23,i,8
N#C/C(=C\c1cccc(Cl)c1)c1n[nH]c(Cn2cncn2)n1,-15,-21,3,3,-2,21,i,·
Cc1ccccc1-c1nc(CS(=O)(=O)CC(=O)N(C)C2CCCCC2)c(C)o1,1,-8,1,-14,-1,7,i,28
Cn1nccc1C(=O)N1CCCC(N2CCN(Cc3ccc4c(c3)OCO4)CC2)C1 (centres undefined),1,-1,2,1,7,-11,i,5
O=C(c1ccc2c(=O)n3c(nc2c1)CCC3)N1CCCSC1=Nc1ccccc1,·,2,0,4,·,-4,i,8
CC(C)c1cc(C(=O)NCc2ccco2)no1,-15,-11,1,4,11,-8,i,-3
CCC(=O)NCCc1nc2cc(NC(=O)c3ccc(OC)cc3)ccc2n1C,-2,-11,4,4,-10,-19,i,-43
O=C(N1CCN(CCO)CC1)N1c2ccccc2CCc2ccccc21,-3,-10,-2,0,-4,0,i,-3
COc1ccc(C2NC(=O)NC(C)=C2C(C)=O)cc1 (centres undefined),0,-2,-4,4,-4,3,i,·
CC(=O)c1ccc(N2CCN(S(=O)(=O)c3c(C)[nH]c(=O)[nH]c3=O)CC2)cc1,22,1,7,0,-5,·,i,2
CCN1CCN(C(=O)C2CCCN(S(=O)(=O)c3ccc(OC)c(OC)c3)C2)CC1 (centres undefined),2,-13,-4,1,-5,-13,i,-4
CCN1CCN(CC(O)COCc2cc(OC)c(OC)c(OC)c2)CC1 (centres undefined),11,-10,-1,0,3,·,i,19
O=C(Nc1cnc2ccccn2c1=O)c1ccc(F)cc1,0,-11,-6,-13,-1,-24,i,-220
COc1ccc(C(=O)CSc2nnc(CN3CCCCC3)n2-c2ccc(F)cc2)cc1,12,65,-4,-7,2,·,i,7
CNS(=O)(=O)c1cccc(C(=O)NCC2(N3CCOCC3)CCCCC2)c1,2,-6,2,1,-1,·,i,14
COc1ccc(NC(=S)NCc2ccco2)cc1,-6,-8,1,4,2,·,i,·
CC(Sc1nncs1)C(=O)NCC(=O)Nc1ccc(F)c(F)c1F (centres undefined),-12,-3,0,3,3,·,i,-47
O=C1CCC/C(=N\NC(=O)c2ccc(COc3cccc4cccnc34)cc2)C1,-3,0,2,4,38,-25,i,-9
Cc1ccc(S(=O)(=O)Cn2nnnc2C(c2ccccn2)N2CCN(c3ccccc3)CC2)cc1 (centres undefined),-6,4,-4,-8,-3,-8,i,2
CCOC(=O)C(CC)Sc1ncnc2nc[nH]c12 (centres undefined),-2,·,0,-6,-7,-17,i,-127
COc1c(Cl)cnn(-c2ccc(C)cc2)c1=O,5,3,-2,-1,4,-19,i,·
CCC(C(=O)NC1CCCC1)N(C(=O)c1snc(C(N)=O)c1N)c1ccc(OC)c(OC)c1 (centres undefined),6,0,0,0,0,-17,i,10
Cc1c(C(=O)N(Cc2nnc(-c3ccccc3Cl)o2)C2CC2)oc2ccccc12,·,-5,2,3,·,-5,·,-7
Cc1cccc(OCC(=O)NC(Cc2ccccc2)C(=O)O)c1 (centres undefined),-10,0,0,7,1,-7,i,·
CC(=O)N1CCC(=O)N(C(C)C)c2ccccc21,2,2,0,3,-2,·,i,·
CCCOc1ccc(C(=O)N2CCN(c3ccc(NC(=O)CC)cc3Cl)CC2)cc1,-8,13,-1,-12,8,12,i,38

# (further entries)
SMILES,PABP FP inh,CSC inhib,MT1-MMP act inh,MT1-MMP act inh RFP,eIF4H inh,UUG fidelity,Rce1 inhib,Env fusion inh
COc1ccc(N2CCN(C(=O)CCC(=O)c3cc(C)sc3C)CC2)cc1,-14,-11,-4,-5,-11,·,i,0
CCOc1ccc(NC(=O)CSc2cn[nH]n2)cc1,·,-10,1,2,·,-17,i,-1
CNC(=O)c1ccc(CN(C)C(=O)c2cccc(S(=O)(=O)N3CCc4ccccc4C3)c2)cc1,·,·,-5,-2,·,13,·,-20
O=C(O)CCSCc1ccccc1F,8,-4,1,0,-8,-20,·,·
C=CCC(Nc1ccccc1)c1ccc(OC)c(OC)c1 (centres undefined),-4,-15,·,·,0,·,i,·
O=C(NCCN1CCOCC1)c1ccc2c(c1)N(Cc1cccc(Cl)c1)C(=O)c1ccccc1S2(=O)=O,·,·,-1,2,·,-3,·,-27
CN(CC(=O)NC1CCCCC1)S(=O)(=O)c1ccc(Cl)cc1,10,9,-3,1,0,-17,i,-8
Cc1[nH]c(=O)c(C#N)c(C)c1Cc1ccc(Cl)cc1Cl,5,-19,-1,1,-2,2,i,-25
CCO[C@H]1OC(C(=O)N2CCN(Cc3ccccc3)CC2)=C[C@@H](C)[C@@H]1CCCO,2,-5,-2,5,2,-7,i,-77
COC(=O)c1c(NC(=O)COC(=O)[C@@H](NS(=O)(=O)c2ccc(C)cc2)C(C)C)sc2c1CCC2,1,7,0,-10,-3,·,i,12
Nc1nc2c(ncn2[C@@H]2O[C@H](CNS(=O)(=O)N3CCc4ccccc4C3)[C@@H](O)[C@H]2O)c(=O)[nH]1,·,·,2,2,·,-11,·,-13
COC(=O)c1ccc(OCC(=O)c2cccc(OC)c2)cc1,-19,·,0,2,0,·,i,-41
Cc1nc2sccc2c(=O)n1N,-6,·,-1,5,14,·,i,-1
NC(=O)c1ccsc1NC(=O)c1ccc(S(=O)(=O)N2CCCc3ccccc32)cc1,-6,48,-2,-24,-4,-17,i,-1
Cc1c(N=NC2=C(O)CC(C)(C)CC2=O)c(=O)n(-c2ccccc2)n1C,-6,-3,1,2,3,·,i,-12
Clc1ccc(C2=CSC3=NCCN23)c(Cl)c1,·,-4,-4,0,·,·,i,10
CCOC(=O)c1c(NC(=O)C2c3ccccc3Oc3ccccc32)sc(C(N)=O)c1C,-2,-4,-9,-13,0,-15,i,·
COc1ccc(C=C(C(C)=O)C(C)=O)cc1OC,2,-5,-3,-5,-5,-14,i,6
COc1ccc(-c2csc(NC(=O)CCNC(=O)c3ccco3)n2)cc1,·,·,0,4,·,-13,·,12
Cc1cc(=O)n2nc(N3CCC(C(=O)N4CCN(Cc5ccccc5)CC4)CC3)sc2n1,-8,7,-1,1,-10,·,i,·
C=Cn1ccnc1CC(O)c1ccc(OC)cc1 (centres undefined),·,0,5,2,·,-3,i,-12
CC1CCCCC1NC(=O)c1cccc(N2C(=O)C3C4C=CC(C4)C3C2=O)c1 (centres undefined),1,-29,-2,-25,-12,-17,i,11
Cn1nc(C(C)(C)C)cc1C(=O)N1CCCCC1c1cc(C(=O)Nc2ccc3c(c2)OCO3)no1 (centres undefined),·,·,0,-15,·,-9,·,7
COc1ccc(C(=O)NNC(=O)C2CC=CCC2)cc1 (centres undefined),-1,-15,1,-1,3,-3,i,6
CCCn1c(N)c(C(=O)COc2ccc(Br)cc2F)c(=O)n(C)c1=O,4,-1,2,-10,13,8,i,8
CCCCCCSc1cccc(-c2nc3ccccn3c2NCc2ccccc2)c1,·,?,-1&-1,-12&-23,·,-15,·,-2&-109
CCOc1cc(-c2ccccc2)nc(N)n1,-6,-9,2,1,2,-14,i,-105
Cc1cc(S(=O)(=O)N(C)CCc2ccccc2)ccc1-n1cnnn1,5,-4,1,-4,-6,-7,i,·
O=C(COc1ccc([N+](=O)[O-])cc1)NCc1cccnc1,5,-23,1,5,-2,·,i,9

# Record cards, as listed above.
# CC(C)OC(=O)CC(=O)CSc1nc2c(cc1C#N)CCCC2 reads PABP FP inh = 28; CSC inhib = -3; MT1-MMP act inh = 12; MT1-MMP act inh RFP = 3; eIF4H inh = 26; UUG fidelity = -13; Rce1 inhib = i; Env fusion inh = -112
# O=C(c1ccco1)N1CCN(CC2CC3C=CC2C3)CC1 (centres undefined) reads PABP FP inh = 17; CSC inhib = ·; MT1-MMP act inh = 6; MT1-MMP act inh RFP = 6; eIF4H inh = 1; UUG fidelity = -12; Rce1 inhib = ·; Env fusion inh = -23

# Only part of the results is shown; rates above refer to the full screens.
